Six1-Eya2 blk: inhibitors of human Six1/Eya2 interaction; Q15475+O00167; AlphaScreen GST-Six1/His-Eya2 binding, biochemical; hits give low values; control for the full effect not named in the record; activity change, % (concentration not given with the values); 360,000 tested, 0.56% active; AID 651725; in the data active = activity change below about -65%; inconclusive = about -30% to -65%; inactive = above about -30%; further: on the % scale 0 is the no-effect control and ±100 the full control effect
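Six1/Eya2 binding was read as AlphaScreen signal after compounds were pinned into GST-Six1 plus His-tagged Eya2 (5X stock 250/500 nM) in pH 8.0 Tris/NaCl/TCEP buffer, beads added, then incubated 1 h, 37 C, dark.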
TRPML1 agonist: activates the human TRPML1 channel. TRPML1-expressing cells, Ca2+ dye fluorescence, FDSS; host cell line not named in the record; reference of the full effect not given here. activation, % (no concentration beside the values). 410,000 tested, 0.12% active; in the data active = activation above about 50%; inconclusive = about 30% to 50%; inactive = below about 30%; further: 0% is about no effect; the text of the record puts the active cut at 80%
Target sequence (Q9GZU1 whole entry, looked up): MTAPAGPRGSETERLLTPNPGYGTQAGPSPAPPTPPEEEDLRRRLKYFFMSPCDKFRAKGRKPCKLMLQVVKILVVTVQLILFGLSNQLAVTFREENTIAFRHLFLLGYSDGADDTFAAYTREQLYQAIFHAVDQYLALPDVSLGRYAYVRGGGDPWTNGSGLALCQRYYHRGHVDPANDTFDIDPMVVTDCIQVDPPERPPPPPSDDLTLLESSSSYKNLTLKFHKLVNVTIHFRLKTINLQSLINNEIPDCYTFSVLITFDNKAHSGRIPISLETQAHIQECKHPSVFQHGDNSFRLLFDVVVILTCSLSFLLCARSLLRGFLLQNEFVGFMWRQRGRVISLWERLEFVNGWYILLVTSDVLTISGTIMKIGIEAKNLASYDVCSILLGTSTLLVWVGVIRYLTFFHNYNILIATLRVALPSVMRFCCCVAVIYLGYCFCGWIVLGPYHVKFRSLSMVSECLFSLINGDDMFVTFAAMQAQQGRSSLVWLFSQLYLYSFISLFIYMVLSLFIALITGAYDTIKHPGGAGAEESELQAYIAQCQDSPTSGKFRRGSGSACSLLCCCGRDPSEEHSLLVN
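Kinetic FDSS Ca2+ read in Tet-induced TRPML1-DL cells (ABD Ca8 dye plus quencher, 45-90 min RT loading): baseline, then compound, then 110 s agonist window; EC80 agonist 54-4 at 4uM final added afterwards for a 110 s antagonist window.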
PINK1 expr mod: PINK1 expression modulation; Potency, µM (highest dose often 76.6 µM), for inactives: at the highest dose activation (PINK1 increase), usual class: activators; 410,000 tested, 0.2% active; PINK1 immunofluorescence, high-content cytometry, 24 h; active = well fitted activation curve with a large enough effect; inconclusive = small, poorly fitted or top-dose-only effect; inactive = flat fitted curve, though single readings scatter; cell line not stated here;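 further: potency means the concentration at half of the fitted maximal effect; % of control where 0% means no effect; nearly all actives have a fitted effect of over 65% in size; a mitochondrial uncoupler was the plate control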
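Stable cell line, 250 cells/well, 12 h attachment; compounds pinned at 5 concentrations, 24 h; CCCP control. Fixed with nuclear dye, primary antibodies 12 h at 10 degrees C, secondary plus cell stain; laser-scanning cytometer read.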
CtBP-E1A blk: blocks the CtBP interaction with E1A | 340,000 tested, 0.49% active | AID 651724 | AlphaScreen GST-E1A/His-CtBP binding, 1536-well; hits give low values; control for the full effect not named in the record | activity change, % (no concentration beside the values); in the data active means activity change below about -65%; inconclusive means about -30% to -65%; inactive means above about -30%; further: on the % scale 0 is the no-effect control and ±100 the full control effect; compound concentration not given in the record
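Homogeneous bead-based format: GST-tagged E1A captured on glutathione donor beads, His-tagged CtBP on nickel acceptor beads; compounds precede bead addition by 2 h at 37 °C.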
D2 agonist: agonists of human D2 dopamine receptor (beta-arrestin); AID 624465; P14416; DiscoveRx PathHunter D2 beta-arrestin, luminescence, 90 min; 100% = 57 uM dopamine signal; activation, % (no concentration beside the values); 360,000 tested, 0.084% active; in the data active = activation above about 40%; inconclusive = about 15% to 40%; inactive = below about 15%; further: compound concentration not given in the record; the text of the record calls up to 30% inactive
Target sequence (P14416 whole entry, looked up): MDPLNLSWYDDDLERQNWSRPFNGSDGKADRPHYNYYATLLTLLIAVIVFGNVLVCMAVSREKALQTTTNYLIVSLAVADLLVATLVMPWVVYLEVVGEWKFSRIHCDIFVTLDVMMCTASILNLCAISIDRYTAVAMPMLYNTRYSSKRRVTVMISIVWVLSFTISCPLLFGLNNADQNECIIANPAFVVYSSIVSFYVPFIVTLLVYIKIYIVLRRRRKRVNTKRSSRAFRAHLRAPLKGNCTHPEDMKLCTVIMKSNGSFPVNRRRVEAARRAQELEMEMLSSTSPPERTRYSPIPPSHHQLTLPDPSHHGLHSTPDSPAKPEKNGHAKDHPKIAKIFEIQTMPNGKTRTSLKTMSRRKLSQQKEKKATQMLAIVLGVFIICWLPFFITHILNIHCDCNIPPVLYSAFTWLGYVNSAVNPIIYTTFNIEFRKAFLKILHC
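Agonist mode: compounds alone added to overnight-plated D2 PathHunter cells for 90 min at 37 C, with 57 uM final dopamine (EC100) defining full response. Beta-arrestin recruitment detected by chemiluminescent reagent, read after 1 h at ambient temperature.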
D2 potentiator: human D2 receptor positive allosteric modulation; DiscoveRx D2 beta-arrestin cells, luminescence, 90 min; 100% = 57 uM dopamine signal; potentiation, % (concentration not given with the values); P14416; AID 624464; 360,000 tested, 0.23% active; active = potentiation of 50% or more; inconclusive = 30% to 50%; inactive = 30% or less;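 further: compound concentration not given in the record; tested on top of an EC20 dose of dopamine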
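D2 cells co-treated with compound plus 50 nM dopamine (EC20) for 90 min at 37 deg C to detect potentiation. Beta-arrestin recruitment was read as enzyme-fragment luminescence after 1 h at ambient temperature. Full response was set by 57 uM dopamine.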
Starred values were filed as active, the others as inactive; ? = inconclusive; / = no result given; [ ] = remark or other dose.

SMILES	Six1-Eya2 blk	TRPML1 agonist	PINK1 expr mod	CtBP-E1A blk	D2 agonist	D2 potentiator
Cc1cccc(-c2ccc3c(c2)C2CC3CCN2)c1 (configuration not stated)	4.9	2.1	13.1%	-0.9	1.0	-3.9
CCN(c1ccccc1)S(=O)(=O)c1ccc(C(=O)Nc2cccc(NC(C)=O)c2)cc1	-2.2	-0.6	0.8%	1.2	9.9	0.0
COCCNC(=O)c1ccc(NC(C)=O)cc1	6.5	0.6	0.4%	-2.6	-2.8	-19.0
CCCc1c(C(=O)NNc2ccc(C)cc2)cnn1-c1ccccc1	1.8	0.5	0.2%	-0.4	-10.7	-18.3
c1cc(CNc2ccc3c(c2)OCCO3)ccn1	-9.5	-0.9	-0.7%	-5.1	-0.3	14.9
COc1cccc2cc(C(=O)NCCN3CCOCC3)oc12	-0.2	-0.3	-0.4%	-2.3	-1.0	-8.1
S=c1[nH]nc(-c2ccncc2)n1/N=C/C=C/c1ccccc1	-0.4	1.1	-0.7%	-24.0	4.3	-18.7
CC(C)(C)c1ccc(CC(=O)N2CCC2(C)C(=O)NCc2cccs2)cc1 (configuration not stated)	-3.6	-1.1	1.7%	0.1	11.9	0.8
Fc1ccc(C(c2nnnn2Cc2cccs2)N2CCN(C3CCCC3)CC2)cc1 (configuration not stated)	-5.1	-0.4	-1.5%	-11.2	-5.1	-36.6
CC(=O)C1=C(C)N2CCN=C2S1	8.1	1.0	-1.2%	-4.9	-1.2	0.1
Cc1cccc(NCc2ccc(O)c3ncccc23)c1	-79.9*	0.1	17.3%	-86.3*	8.5	5.1
CCN(CC)c1ccc(/C=N/n2c(C)cc(C)cc2=O)cc1	-3.1	1.1	0.3%	2.0	-2.1	2.8
CC1(C(=O)NS(=O)(=O)c2ccc3c(c2)CCO3)CCN1C(=O)C1(c2ccc(Cl)cc2)CC1 (configuration not stated)	1.7	-0.1	1.5%	4.8	-2.6	-7.0
Cc1ccc(C)c(NS(=O)(=O)c2ccc(NC(=O)CSc3ccc(Cl)cc3)cc2)c1	4.3	3.1	0.9%	-1.1	-2.0	0.6
CC1(C)CC(=O)C(=Cc2cn(-c3ccccc3)nc2-c2ccccc2)C(=O)C1	1.9	-0.9	1.1%	2.4	-2.4	-6.1
O=C(Nc1ccccn1)c1ccc(S(=O)(=O)c2ccc(Cl)cc2)cc1	20.2	1.7	0.3%	2.8	-1.5	2.6
Cc1ccc2[nH]c(O)c(N=NC(=O)CCc3ccccc3)c2c1Br	0.0	0.1	-1.2%	-4.1	-4.6	-12.5
Cc1ccc(C)c(N(C(=O)c2snc(C(N)=O)c2N)C(C(=O)NCC2CCCO2)c2cccs2)c1 (configuration not stated)	-7.6	0.7	-1.1%	3.7	0.5	-13.3
CCOC(=O)c1cnn(-c2ccccc2)c1NC(=O)CSc1nnc(-c2cccs2)n1CC	11.0	0.7	-0.8%	3.8	-0.1	0.3
COc1ccc(CSc2nnc(CNS(C)(=O)=O)o2)cc1	0.5	-0.2	1.6%[38.3 µM]	9.9	-0.2	1.8
CCOC(=O)C1CCN(C(=O)CSc2ccc(Br)cc2)CC1	10.8	-0.9	0.4%	2.8	-1.9	0.0
CC1C(=O)CCN(C(C)(C)C)C1C (configuration not stated)	11.8	-0.3	0.0%	-0.3	-1.1	-9.4
COc1ccccc1OCCNC(=O)c1cc(F)c(F)cc1Cl	0.6	0.8	0.2%	-3.6	-2.5	-1.6
Cc1ccc2c(c1)N(CCC(=O)NCC1CCCO1)C(=O)CO2 (configuration not stated)	-10.0	-0.4	2.6%	-15.8	-2.4	-11.2
COc1cc(-c2cnc3c(NC(C)=O)cc(-c4ccccc4CN(C)C)cn23)cc(OC)c1OC	-7.5	-0.4	19.4%	-13.3	-4.3	-6.0

A different layout for part of the listing above:
| smiles | Six1-Eya2 blk | TRPML1 agonist | PINK1 expr mod | CtBP-E1A blk | D2 agonist | D2 potentiator |
| --- | --- | --- | --- | --- | --- | --- |
| Cc1cccc(-c2ccc3c(c2)C2CC3CCN2)c1 (configuration not stated) | 4.9 | 2.1 | 13.1% | -0.9 | 1.0 | -3.9 |
| CCN(c1ccccc1)S(=O)(=O)c1ccc(C(=O)Nc2cccc(NC(C)=O)c2)cc1 | -2.2 | -0.6 | 0.8% | 1.2 | 9.9 | 0.0 |
| COCCNC(=O)c1ccc(NC(C)=O)cc1 | 6.5 | 0.6 | 0.4% | -2.6 | -2.8 | -19.0 |
| CCCc1c(C(=O)NNc2ccc(C)cc2)cnn1-c1ccccc1 | 1.8 | 0.5 | 0.2% | -0.4 | -10.7 | -18.3 |

Next part.
SMILES	Six1-Eya2 blk	TRPML1 agonist	PINK1 expr mod	CtBP-E1A blk	D2 agonist	D2 potentiator
C/C(=N/NC(=O)c1cc(C2CC2)[nH]n1)c1cccs1	23.3	-0.9	-1.0%	1.7	-2.3	-19.2
CCC(CNc1cc(OC)cc2cccnc12)NC1CCCCC1 (configuration not stated)	-12.7	3.1	2.5%	/	7.3	-19.3
COc1ccccc1C(OC(=O)c1ccco1)C(=O)NCc1ccc(F)cc1 (configuration not stated)	-0.3	-1.4	1.8%	16.0	-10.3	-7.8
C=CCc1cccc2cc(C(=O)NCc3cccnc3)c(=O)oc12	-2.2	-0.3	/	4.4	-1.8	-19.5
Cn1nc(C(F)(F)F)c(-c2ccc(Br)cc2)c1NC(=O)C1CCC1C(=O)O (configuration not stated)	4.5	-0.2	-0.3%	5.8	-5.0	1.4
Cc1ccc(Cl)c(NC(=O)COC(=O)CNS(=O)(=O)/C=C/c2ccccc2)c1Cl	-6.8	-0.5	3.2%	14.4	2.7	-18.9
COC(=O)[C@@]12CCCCN1[C@H](c1ccc(-c3ccc(F)cc3)cc1)[C@@H]1C(=O)N(C)C(=O)[C@@H]12	-9.7	0.7	0.6%	-6.2	-3.3	-13.8
c1ccc2oc(NC3=NCN(C4CCCCC4)CN3)nc2c1	10.7	2.9	13.2%	-2.0	1.0	1.0
Clc1ccc(/C=N/Nc2nc(Cl)nc3ccccc23)cc1	?	3.0	3.3%	?	-6.8	-17.3
CCOC(=O)/C(=N\Nc1ccccc1Cl)N(C)C1CCS(=O)(=O)C1 (configuration not stated)	8.7	0.5	0.1%	-6.7	-4.3	-2.7
O=C(COc1ccc(Cl)c2cccnc12)N1CCOCC1	3.4	0.2	1.4%	-2.0	-5.7	-4.2
O=C(N/C(=C\c1ccccc1)C(=O)N1CCOCC1)c1ccccc1Br	-0.1	0.0	0.0%	-0.3	-2.1	-8.4
C=CCNC(=S)NCc1ccccc1OC	-0.1	0.4	1.2%	0.0	-2.6	-3.7
CCc1nc2c(OCCC3CCCCC3)cccn2c1N(C)C(=O)c1ccco1	-9.6	4.3	0.1%	-1.1	2.2	-10.8
C/C(CC1CC(C)(C)OC1=O)=N\NC(N)=S (configuration not stated)	11.0	0.1	1.1%	4.0	6.2	-7.9
O=C(c1ccco1)N1CCN(Cc2c(Cl)cccc2Cl)CC1	0.7	1.7	0.8%	0.8	-1.4	1.4
CC(=O)C1=C(O)C(=O)N(c2ccc(S(=O)(=O)Nc3nccs3)cc2)C1c1ccc(F)cc1 (configuration not stated)	-1.6	1.0	0.3%	-0.4	4.3	0.7
O=C(CN1N=C(c2ccccc2)CCC1=O)NCc1cccs1	-13.3	0.6	0.4%	-14.2	1.2	-3.9
O=C(CNS(=O)(=O)c1ccc(F)cc1)N1CCN(c2ccc(F)cc2)CC1	-1.4	0.8	?	-23.8	0.4	4.5
O=C(Nc1ccccc1)C(CCCCN1C(=O)c2ccccc2C1=O)N1C(=O)c2ccccc2C1=O (configuration not stated)	-4.8	0.0	-1.5%	-9.5	-5.0	-10.9
O=C(Nc1cc(-c2ccccc2)[nH]n1)c1ccc(Cl)cc1	0.7	2.2	1.8%	/	2.0	-7.3
COc1ccc(Cl)cc1NC(=O)CN(C)C(=O)c1cc2c(s1)CCCC2	2.1	3.6	1.5%	0.0	0.4	2.4
O=C(NCC(=O)N1CCCC1)c1ccc(Br)cc1	1.0	0.4	-0.2%	1.2	-3.7	-7.3
O=C(NCc1ccc(Cl)cc1)C1CCC(CNc2c(N3CCCCC3)c(=O)c2=O)CC1 (configuration not stated)	1.3	-1.0	1.7%	-1.5	-2.5	-4.2
COC(=O)C(CCSC)NS(=O)(=O)c1ccc(Cl)cc1 (configuration not stated)	-0.4	-0.2	0.0%	/	-8.1	-5.6
New compounds follow.
SMILES	Six1-Eya2 blk	TRPML1 agonist	PINK1 expr mod	CtBP-E1A blk	D2 agonist	D2 potentiator
O=C(Nc1cccc(Cl)c1)c1ccccc1	10.7	0.5	0.2%	-16.1	2.8	-10.2
O=C(O)c1ccccc1/C=N/NC(=S)NCc1ccccc1	-3.1	-0.8	3.2%	4.8	-2.1	-0.3
O=C(Nc1ccc(Cl)c(S(=O)(=O)N2CCCC2)c1)c1cc(=O)[nH]c2ccccc12	-3.9	0.1	2.7%	-7.4	2.0	-4.5
CNC(=S)N1CCC(NC(=O)C(Cc2ccccc2)NC(C)=O)CC1 (configuration not stated)	1.9	0.3	2.1%	5.7	?	-0.4
CC(NC(=O)c1ccccc1F)c1nnc(SCc2nc3ccccc3c(=O)[nH]2)n1C (configuration not stated)	7.5	-0.6	5.0%	3.0	-0.1	-1.4
CCOC(=O)c1oc2ccc(S(=O)(=O)N3CCOCC3)cc2c1C	7.9	0.3	-7.5%[38.3 µM]	4.2	0.2	-6.9
O=C(O)c1cccc(S(=O)(=O)Nc2cccc(S(=O)(=O)N3CCCCCC3)c2)c1	-6.8	2.3	-3.0%	-8.8	-2.0	0.5
Cc1ccc(-c2nn3c(C)nnc3c3ccccc23)cc1S(=O)(=O)NC(C)c1ccccc1 (configuration not stated)	?	0.5	6.1%	-11.1	-4.5	-9.9
CCCCNC(=O)C1c2ccccc2C(=O)N(c2ccc(OC)cc2)C1c1ccc(OC)cc1 (configuration not stated)	-0.9	0.7	2.7%	-6.3	-4.6	-8.8
O=C(CNC(=O)c1ccco1)NCC(=O)OCc1ccccc1Br	8.2	-1.6	2.6%	-6.0	-2.7	-0.7
Cc1ccc(-n2cnc(N)c2C(=O)c2cccc([N+](=O)[O-])c2)cc1	-7.4	1.7	-1.3%	-11.1	-0.9	0.0
CC1=C(C(=O)N(C(C)C)C(C)C)CC(CC(=O)NC2CCCCC2)C(=O)N1Cc1ccc(C(C)(C)C)cc1 (configuration not stated)	3.0	0.0	7.9%	-2.7	-7.7	-8.9
CCOc1ccc(Br)cc1/C=N/O	4.4	1.4	-1.1%[38.3 µM]	6.8	0.1	-2.5
COc1ccccc1N(C)S(=O)(=O)c1ccc(C(=O)Nc2ccc(C)cc2C)cc1	2.0	0.2	-0.1%	5.8	-2.6	-18.9
CCN1C(=O)[C@H]2[C@@H](c3ccc(-c4ccc(F)cc4)cc3)N[C@@](CC(C)C)(C(=O)OC)[C@H]2C1=O	4.0	0.6	2.6%	0.8	-2.9	-11.2
CCN(Cc1ccccc1)S(=O)(=O)c1ccccc1Br	44.5	3.1	3.2%	38.1	-1.4	-1.0
CCc1ccc(NC(=O)C2CCN(S(=O)(=O)c3ccc4c(c3)NC(=O)CO4)CC2)cc1	0.4	1.5	1.5%	-21.1	1.2	-17.4
COc1cccc(OC)c1C(=O)OCC(=O)/C(C#N)=C(\C)N	-1.6	-0.5	0.2%	0.0	1.4	11.9
O=C(NNC(=O)C1CCCN(S(=O)(=O)c2ccc3ccccc3c2)C1)C1CC1 (configuration not stated)	-0.5	0.2	-1.4%	-0.9	0.7	-1.2

High-throughput results (PubChem)
